# PABP FP inh – blocks human PABP binding to poly(A) RNA; P11940; fluorescence polarization; inhibition, % at 35 µM; actives 1% (n = 290,000);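 active means 50% or more with normal probe brightness, or confirmed in later tests; inconclusive means above 50% with abnormal brightness, or retests that disagree; inactive means below 50% or failed in later tests; about a fifth of its hits are not listed in these tables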;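 further: calls also rest on retests at 20 µM and on dose response follow-up; controls were probe without protein and protein plus probe with vehicle; some compounds called inactive have numbers as strong as hits; many hits fall short of the cut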
# Target sequence (P11940 whole entry, looked up): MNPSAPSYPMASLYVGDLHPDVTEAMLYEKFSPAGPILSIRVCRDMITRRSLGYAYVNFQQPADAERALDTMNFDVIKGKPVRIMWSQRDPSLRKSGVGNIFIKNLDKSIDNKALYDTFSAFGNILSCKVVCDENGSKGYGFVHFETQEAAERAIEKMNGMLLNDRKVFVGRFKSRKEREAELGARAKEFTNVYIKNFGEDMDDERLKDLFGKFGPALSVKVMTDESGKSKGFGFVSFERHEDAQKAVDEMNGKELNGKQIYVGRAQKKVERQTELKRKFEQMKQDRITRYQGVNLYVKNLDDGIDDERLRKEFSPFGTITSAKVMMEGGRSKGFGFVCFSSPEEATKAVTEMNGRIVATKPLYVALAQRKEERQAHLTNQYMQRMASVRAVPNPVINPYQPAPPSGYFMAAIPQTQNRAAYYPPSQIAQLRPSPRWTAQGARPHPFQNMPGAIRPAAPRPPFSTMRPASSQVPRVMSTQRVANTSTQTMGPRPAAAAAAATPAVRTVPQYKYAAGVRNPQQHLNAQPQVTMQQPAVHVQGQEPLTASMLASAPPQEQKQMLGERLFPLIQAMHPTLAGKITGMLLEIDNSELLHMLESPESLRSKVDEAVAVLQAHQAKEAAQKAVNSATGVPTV
# Rce1 inh – yeast Ras-converting enzyme inhibition; yeast membranes, quenched prenylated peptide cleavage fluorescence; calls only; actives 0.27% (n = 290,000);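 active means fall in fluorescence gain of 50% or more versus controls, with final raw signal at or below 3038400; inconclusive means same 50% fall but final raw signal above 3038400; inactive means fall in fluorescence gain under 50%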;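 further: plate controls were neutral control wells for no effect and wells lacking membranes for full effect; tested at 10 µM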
# CSC inhib – cancer stem cell inhibition; actives 1.1% (n = 300,000); inhibition, % at 7.5 µM; cancer stem cell-like cells viability, luminescence; AID 2717;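 active means mean at 75% or more and at least half the replicates too; inconclusive means mean and replicates disagree; tested in HMLE shEcad cells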;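 further: 0% = median of negative and 100% = median of positive control wells; the first replicate is given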
# Yeast UUG start – modulators of start codon recognition fidelity in yeast; S. cerevisiae UUG-firefly luciferase reporter, luminescence/redox ratio; activity score, % at 18.7 µM; actives 0.13% (n = 350,000);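 active means replicate mean at a twofold rise or more, about +100% in these data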;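 further: firefly luciferase made from a UUG start codon reports start codon fidelity; reporter light over untreated wells divided by growth signal over untreated wells; some hits fall short of that in this replicate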
# MT1-MMP act inh – MT1-MMP (human) activation inhibition; P50281; HT1080 RFP-PRO-GFP cells, GFP/RFP ratio fluorescence, overnight; percent of plate control window, DMSO zero; GFP/RFP ratio change, % at 20 µM; actives 0.061% (n = 360,000); AID 651647;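 active means GFP/RFP ratio change of at least 30% with cell ATP level not reduced by more than half and red fluorescence within 50% of control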; further: strong numbers were not always called active
#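 Assay system: HT1080 RFP-PRO-GFP cells | Dosing: 20 µM single dose, 1% DMSO | Incubation: Cells overnight before dosing, compound overnight, 37 °C, 5% CO2 | Evaluation: GFP/RFP fluorescence ratio | Control set: DMSO-only wells and HT1080 RFP-L50D-GFP cell wells as references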
# Env fusion inh – inhibitors of HIV Env-mediated cell fusion. HeLa-JRFL Env/CEM21 cell fusion, luciferase. AID 651610. actives 1.1% (n = 360,000). inhibition, % at 12.3 µM;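 active means mean replicate inhibition score of at least 50 and every replicate individually at or above 50; inconclusive means only one of the two criteria met; inactive means mean below 50 and not all replicates reaching 50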;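 further: 0% = plate neutral controls and 100% = maraviroc near 300 nM; one replicate is shown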
# eIF4H FP inh – inhibitors of RNA binding by human eIF4H. eIF4H fluorescence polarization binding assay. AID 2012. actives 0.94% (n = 290,000). inhibition, % at 35 µM. Q15056;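 active means 50% or more with normal probe brightness, or confirmed in later tests; inconclusive means above 50% with abnormal brightness, or retests that disagree; inactive means below 50% or failed in later tests; about a fifth of its hits are not listed in these tables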;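 further: calls also rest on retests at 20 µM and on dose response follow-up; 0% = protein and probe with vehicle and 100% = probe without protein; strong numbers were not always called active; many hits fall short of the cut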
# eIF4H FP inh retest – also measured in eIF4H FP inh; calls as there; inhibition, %; compound at 20 µM; confirmation average;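 mean of two retest wells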
# PABP FP inh retest – recorded beside PABP FP inh, whose call it bears; inhibition, %; compound at 20 µM; confirmation repeats;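 mean of two retest wells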
# MT1-MMP act inh RFP – also measured in MT1-MMP act inh; calls as there; RFP signal change, %; measured here: RFP expression control read;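 0 = vehicle wells; hits needed this value within 50% of zero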
# * marks the source's active call; other numbers are inactive results; i = inactive; ? = inconclusive; . = no result given.
# The first 2 records, ahead of the listing:
SMILES,PABP FP inh,Rce1 inh,CSC inhib,Yeast UUG start,MT1-MMP act inh,MT1-MMP act inh RFP,Env fusion inh,eIF4H FP inh,others
O=C(NCc1ccccc1F)C1CCCN(S(=O)(=O)c2ccc(-n3cnnn3)cc2)C1 (stereo not given),-1,i,6,-3,-1,-1,14,0,
COc1ccc2c(c1)C(=O)/C(=C/C=C/c1ccccc1)CC2,-5,i,30,-9,-8,0,-29,-6,

# The list itself, repeating the preview:
SMILES,PABP FP inh,Rce1 inh,CSC inhib,Yeast UUG start,MT1-MMP act inh,MT1-MMP act inh RFP,Env fusion inh,eIF4H FP inh,others
O=C(NCc1ccccc1F)C1CCCN(S(=O)(=O)c2ccc(-n3cnnn3)cc2)C1 (stereo not given),-1,i,6,-3,-1,-1,14,0,
COc1ccc2c(c1)C(=O)/C(=C/C=C/c1ccccc1)CC2,-5,i,30,-9,-8,0,-29,-6,
O=C1C2C3C=CC(C2C(=O)N1c1ccccc1O)C1C2C(=O)N(c4ccccc4O)C(=O)C2C31 (stereo not given),10,i,-8,-7,1,5,7,-3,
CN1C(=O)C2C=CC1C1C(=O)N(c3ccccc3)C(=O)C21 (stereo not given),0,i,-12,-15,1,-2,-337,-9,
N/C(Cn1cncn1)=N\NC(=O)C(=O)Nc1ccccc1,-2,i,-14,-3,-2,0,7,-5,
C=CCN(c1ccccc1OC)S(=O)(=O)c1cccc(C(=O)NCC(c2ccc(OC)cc2)N2CCCC2)c1 (stereo not given),.,.,.,-4,-4,-1,-4,.,
CCS(=O)c1scc(-c2ccc(Cl)cc2)c1C#N (stereo not given),3,i,2,.,-2,-4,39,-5,
CC1(C(=O)NS(=O)(=O)c2ccccc2Cl)CCN1C(=O)CCc1ccccc1 (stereo not given),.,.,.,-11,1,8,-7,.,
CCOC(=O)c1[nH]c(CSc2nnc(-c3ccncc3)n2CCOC)c(C(=O)OCC)c1C,-10,i,27,-12,-3,-3,-152,-9,
CCn1nnc2cc(C(=O)NCCc3ccccc3F)ccc21,-8,i,1,-61,4,5,-4,1,
O=C(Nc1ccccc1OC(F)F)C1CC(=O)N(Cc2ccccc2)C1 (stereo not given),.,i,-10,.,0,5,.,.,
COc1ccc(N2CC(C(=O)N[C@@H](C)C(=O)NC(C)c3ccccc3)CC2=O)cc1 (stereo not given in full),-7,i,2,-3,1,1,-1,2,
CCCCC(=O)N(CCC)CCC,5,i,-6,-14,2,-1,3,4,
CN(C)c1ccc(/C=C2\CCCc3c2nc2ccccc2c3C(=O)O)cc1,9,i,13,28,-23,6,-67,-5,
CCC1CCc2sc(C(=O)NCC3CCCO3)cc2C1 (stereo not given),.,.,.,-5,4,0,-58,.,
CC1CCCN(CCCN2C(=O)C3C(C(=O)Nc4cccc(Cl)c4)C4C=CC3(O4)C2C(=O)NC2CCCCC2)C1 (stereo not given),-2,i,-15,-5,-2,0,3,-9,
CCC(=O)Nc1ccc(/C(C)=N\NS(=O)(=O)c2ccc(C)cc2)cc1,-5,i,4,3,1,3,.,2,
COc1cccc(C(=O)NC(C)c2cccc3ccccc23)c1OC (stereo not given),12,.,-5,7,-9,-12,1,-9,
Cc1ccc(N2C(=O)CCC2(C(N)=O)c2ccccc2)cc1 (stereo not given),-20,i,-6,-19,5,-1,6,-5,
O=C(O)CC1=C(Nc2ccccc2)C(=O)N(c2ccccc2)C1c1ccc(F)cc1 (stereo not given),-4,i,-1,-13,2,3,-33,-4,
Cc1ccc(S(=O)(=O)NC(CC(=O)O)c2ccccc2)cc1 (stereo not given),-7,i,-4,-12,1,-4,-116,-5,
CCN(CC(=O)N1CCCC1)S(=O)(=O)c1ccccc1,62*,i,.,-7,8,0,10,72*,
CC1(C)CC(=O)C=C(c2ccc3ncccc3c2)C1,.,.,-10,-26,-11,0,11,.,
C[C@]12c3[nH]c4ccc(Cl)cc4c3CCN1C(=O)[C@@H](CC(=O)NCCCn1ccnc1)C[C@@H]2C(=O)N1CCOCC1,.,.,.,-15,1,3,-17,.,
COc1ccc(-c2sc(Nc3ccccc3)n[n+]2-c2ccccc2)cc1Br,.,.,27,-15,-2,3,-36,.,
# The listing continues.
SMILES,PABP FP inh,Rce1 inh,CSC inhib,Yeast UUG start,MT1-MMP act inh,MT1-MMP act inh RFP,Env fusion inh,eIF4H FP inh,others
O=C(CN(Cc1cccs1)C(=O)CNC(=O)c1ccco1)NC1CCCCC1,-4,i,-14,-13,-6,-1,-47,-3,
c1ccc(-c2ccc(SCc3cccnc3)nn2)nc1,-4,i,.,.,2,0,-4,-4,
Cc1ccc(Nc2nnc(SCC(=O)NCC3CCCO3)s2)cc1 (stereo not given),.,.,-2,-4,2,0,.,.,
Cc1[nH]n(-c2ccccc2)c(=O)c1Sc1ccc(Cl)cc1,1,i,-4,1,-3,3,10,-6,
COc1ccc(C(=O)Nc2nc(-c3ccc(OC)cc3)c(-c3ccc([N+](=O)[O-])cc3)s2)cc1,21,i,12,-19,-2,0,-25,33,
COc1cc(NS(=O)(=O)c2ccc(NC(=O)c3ccco3)cc2)nc(OC)n1,-6,i,-3,-18,-1,0,-8,-6,
COC(=O)c1ccc(Cl)c(NC(C)=O)c1,-4,i,-10,-2,3,6,-18,-6,
CSC[C@H]1CN(Cc2cccnc2)C(=O)[C@@H]1CC(=O)Nc1ccc(Br)cc1,.,.,.,-17,2,0,2,.,
Cc1ccc(C(=O)Nc2ccc3c4c(cccc24)CC3)cc1[N+](=O)[O-],14,i,30,.,2,0,8,-3,
COCc1cc(CN(C)C(=O)C2CCC(=O)N(Cc3cccc(OC)c3)C2)[nH]n1 (stereo not given),.,i,-8,-1,1,1,2,.,
COc1ccc(CCNC(=O)/C=C/c2cc(OC)c(OC)c(OC)c2)cc1OC,2,i,-4,.,-4,2,-13,-2,
N#C/C(=C\c1ccc(N2CCOCC2)o1)c1ccccc1,21,i,14,-8,-37,3,.,20,
S=c1[nH]nc(-c2ccncc2)n1/N=C/c1cccc(Cl)c1,17,i,-4,-21,-9,-7,12,-11,
CCSc1nnc(NC(=O)CSc2nc3c(c(=O)n2CC)SC(C)C3)s1 (stereo not given),8,i,2,.,-3,-24,.,0,
Cc1c(OCc2ccccc2)c(=O)ccn1Cc1ccccc1,-7,i,-12,.,-5,-7,.,13,
Cc1cccc(OCCCSc2nc3ccccc3[nH]2)c1,-3,i,9,-10,8,-1,32,-1,
Cc1ccn2nc(C(=O)OCC(=O)N(CC(C)C)C3CCS(=O)(=O)C3)nc2n1 (stereo not given),.,.,-9,-4,1,2,0,.,
CCOC(=O)c1cc2c(ccn2-c2ccc(F)cc2)n1CC(=O)N(CC)CC,1,i,-8,.,2,0,-45,6,
O=C(Nc1ccc2c(c1)OCCO2)c1cccc2nc3ccccc3nc12,8,i,83*,-14,-4,-10,-27,-2,
CCN(C(=O)COC(=O)c1nc2nc(C)cc(C)n2n1)C1CCCCC1,.,i,2,-13,-2,1,-15,.,
COc1cccc(-c2cnc3c(NC=O)cc(-c4ccoc4)cn23)c1,.,.,.,-13,-10,-3,-26,.,
CC1(Oc2ccc(Cl)cc2)CCN(Cc2csc3ccccc23)C1 (stereo not given),.,.,.,8,0,9,12,.,
COc1ccc(Br)cc1CNC(=O)Cn1nc(C)n2cccc2c1=O,-3,i,1,-20,-4,-2,5,-9,
CCNc1nnc(CCn2nc(C)c(Br)c2C)s1,-8,i,-5,.,3,5,8,-4,
CC(C)[C@H](NC(=O)C1CCN(C(=O)[C@@H]2CCCN2)CC1)C(=O)NCc1ccc(F)cc1,3,i,-3,11,-2,3,.,-3,
# (more compounds)
SMILES,PABP FP inh,Rce1 inh,CSC inhib,Yeast UUG start,MT1-MMP act inh,MT1-MMP act inh RFP,Env fusion inh,eIF4H FP inh,others
O=C(NC1CCCCC1)N(Cc1ccccc1)Cc1ccco1,-14,i,.,-16,0,-1,.,-5,
CCn1c(NCc2ccccn2)nc2c1c(=O)n(C)c(=O)n2C,4,i,-9,-12,2,-3,10,11,
CC(O)(c1cccc(F)c1)c1nc(/C=C/c2ccccc2)cs1 (stereo not given),.,.,.,-1,11,-10,-18,.,
COc1ccc(C(=O)CSc2n[nH]c(-c3ccncc3)n2)cc1[N+](=O)[O-],2,i,-11,-16,5,5,-18,-3,
Cc1ccc2c(CN3CCOCC3)cc(=O)oc2c1C,-8,i,7,-2,1,4,-3,13,
CCCCN(CCCC)S(=O)(=O)c1ccc2oc(C(=O)N3CCOCC3)c(C)c2c1,0,i,5,6,-10,-9,?,-8,
O=C(NCC(c1cccs1)N1CCOCC1)c1cc2ccccc2o1 (stereo not given),7,i,0,-16,0,-4,.,-5,
COc1cccc(C(C(=O)NC(C)(C)C)N(CC(C)C)C(=O)CCC(=O)Nc2cc(C)on2)c1OC (stereo not given),-11,i,-6,.,1,1,-9,-4,
CCN1C(=O)c2ccccc2S(=O)c2ccc(C(=O)N3CCOCC3)cc21 (stereo not given),2,i,0,.,4,2,-2,-6,
Cc1c(C)c2c(OCC(=O)N[C@@H](C(=O)O)c3ccccc3)cc3c(c2oc1=O)CCC(C)(C)O3,15,i,-9,10,5,0,.,1,
Cc1cccc(N=C2SC(C)CN2C(=O)CN2C(=O)NC3(CCCC3)C2=O)c1 (stereo not given),.,i,-5,-7,-1,-1,2,.,
Nc1nc(N2C(=O)C3CC=CCC3C2=O)nn1-c1ccccc1 (stereo not given),-3,i,-6,-28,-2,1,.,-4,
COc1cc(OC)c2c(-c3ccccc3)cc(=O)oc2c1C(CCN1CCCC(C)C1)c1ccc(N(C)C)cc1 (stereo not given),-9,i,30,-6,0,-8,-45,-9,
Cn1c(CSc2nc3ccccc3s2)nc2ccccc21,-2,i,-11,-30,0,1,-74,-10,
Cc1ccc(NC(=O)C(=O)NCCCN2CCCC2=O)c(C)c1,.,i,-6,-12,3,5,-6,.,
COc1cc(OC)cc(C(=O)NCC(C)NC(=O)c2cc(OC)cc(OC)c2)c1 (stereo not given),.,i,-10,.,2,8,18,.,
Cc1ccc(Cn2nnc3c(=O)[nH]c(C4CCCN(C(=O)Nc5ccc(F)cc5)C4)nc32)cc1 (stereo not given),-2,i,.,-5,8,-6,49,-1,
COc1ccc(OC)c2sc(N(CCN(C)C)C(=O)c3cc(Cl)sc3Cl)nc12,-4,i,22,.,2,-3,-18,-18,
CC(C)(C)NC(=O)c1cccc(NC(=O)c2ccco2)c1,4,i,-10,-20,-2,3,.,-4,
NC(=O)C1CCN(Cc2nc3cc(C(F)(F)F)ccc3c(=O)[nH]2)CC1,-5,i,-7,-17,2,-2,-5,-12,
COc1ccc(CNC(=O)c2c(-c3c(F)cccc3Cl)noc2C)cc1,-2,i,-6,-19,2,0,1,-6,
COc1ccc(NC(=O)CCS(=O)(=O)c2ccc(Br)s2)cc1,24,i,-7,-7,4,1,3,91*,eIF4H FP inh retest=58*;PABP FP inh retest=29
COC(=O)C/C=C/[C@@H](C)[C@@H](/C=N/OCC[C@@H]1C=C[C@H](OC(C)=O)[C@@H](COC(C)=O)O1)NS(=O)(=O)c1ccc(C)cc1,7,i,5,.,.,.,.,-3,
COc1ccc(N(CC(=O)NCc2ccc(C)cc2)S(=O)(=O)c2ccccc2[N+](=O)[O-])c(OC)c1,-2,i,12,.,0,-1,12,-5,
Cc1ccccc1-n1c(C)nnc1SCC(=O)NC1CCCc2ccccc21 (stereo not given),2,i,5,.,3,4,17,2,
O=C(COC(=O)c1cnccn1)c1ccc2ccccc2c1,-5,i,-19,-10,3,3,.,-1,
CC(C)NC(=O)C(Cc1ccccc1)N1C(=O)c2ccccc2C1=O (stereo not given),2,i,-3,5,1,4,.,-1,
